Menin-MLL FL inh – menin-MLL binding inhibition, fluorescein peptide; Fluorescence polarization, fluorescein-MLL peptide displacement from menin; 290,000 tested, under 10 active; FP activity change, % at 61.4 µM; AID 1766; inconclusive = falling polarisation curve, or a change in total fluorescence; inactive = total fluorescence flat and polarisation flat or rising; no compound was filed as active; the % refers to the polarisation; negative = inhibition;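 also: % of control where 0% means no effect; inhibitors lower the polarisation; unlabelled MLL peptide was the positive control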
gsp ag – agonists of gsp mutant (McCune-Albright syndrome); gsp mutant cells, cAMP HTRF, 30 min; control for the full effect not named in the record; Potency, µM (highest dose often 76.9 µM), inactives show top-dose activation (cAMP increase), hits mostly activators; 0.13% of 340,000 active; AID 624287; active = well fitted activation curve with a large enough effect; inconclusive = small, poorly fitted or top-dose-only effect, or another doubt; inactive = no such curve, though single readings can be large or run the other way; cell line not stated here;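 also: phosphodiesterase inhibitor Ro 20-1724 added with compounds to block cAMP breakdown; potency is read from the fitted curve at half-maximal effect; nearly all actives have a fitted effect of over 60% in size; about a fifth of the inactives were tested at one dose only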
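Cells stably selected in G418 were plated at 2000/well, grown 16-24 hr, then given compounds in DMSO with the PDE inhibitor […] (300 uM solution added) for 30 min at 37C; cAMP was read by HTRF.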
TRPV1 potentiator – enhances activation of the human vanilloid receptor TRPV1; TRPV1-expressing cells, Fluo-8 calcium influx, capsaicin EC20 potentiation; host cell line not named in the record; control for the full effect not named in the record; potentiation, % at 8.33 µM; 0.02% of 320,000 active; active means potentiation above 80%; inconclusive means 30% to 80%; inactive means below 30%; also: 0% is about no effect
Target sequence (Q8NER1 whole entry, looked up): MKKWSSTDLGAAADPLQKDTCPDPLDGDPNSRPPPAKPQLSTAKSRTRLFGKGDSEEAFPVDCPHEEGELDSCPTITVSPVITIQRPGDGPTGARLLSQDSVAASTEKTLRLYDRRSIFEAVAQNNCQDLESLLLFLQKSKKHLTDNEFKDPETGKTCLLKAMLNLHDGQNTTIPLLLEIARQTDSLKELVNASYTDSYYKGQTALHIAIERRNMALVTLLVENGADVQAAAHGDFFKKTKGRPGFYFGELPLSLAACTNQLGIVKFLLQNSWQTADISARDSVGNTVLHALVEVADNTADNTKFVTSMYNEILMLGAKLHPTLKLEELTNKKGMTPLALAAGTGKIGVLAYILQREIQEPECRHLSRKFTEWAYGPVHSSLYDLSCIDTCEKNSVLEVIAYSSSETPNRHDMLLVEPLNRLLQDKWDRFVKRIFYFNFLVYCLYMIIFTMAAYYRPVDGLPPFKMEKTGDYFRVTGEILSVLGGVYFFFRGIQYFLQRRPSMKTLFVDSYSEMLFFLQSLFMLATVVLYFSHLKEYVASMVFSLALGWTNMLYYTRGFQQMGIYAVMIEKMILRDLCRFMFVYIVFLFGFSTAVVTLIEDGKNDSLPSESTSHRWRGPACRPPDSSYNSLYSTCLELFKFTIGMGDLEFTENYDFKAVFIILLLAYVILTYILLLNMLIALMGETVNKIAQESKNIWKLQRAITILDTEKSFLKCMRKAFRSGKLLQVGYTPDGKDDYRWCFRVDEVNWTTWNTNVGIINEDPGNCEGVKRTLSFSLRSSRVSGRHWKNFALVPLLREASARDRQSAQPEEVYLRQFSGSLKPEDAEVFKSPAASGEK
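Cells expressing TRPV1 were dye-loaded with Fluo-8 and read kinetically: 10 s baseline, 3 min after compound (agonist portion), then 2 min after EC20 capsaicin (allosteric enhancer portion). Calcium-bound dye fluorescence at 480/520 nm.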
gsp antag – antagonizes gsp, the McCune-Albright syndrome mutation; gsp-mutant cells, cAMP HTRF, 30 min; control for the full effect not named in the record; Potency, µM (doses to about 76.9 µM), for inactives: at the highest dose activity change, negative = inhibition, hits mostly inhibitors; 0.4% of 340,000 active; active = falling curve of any shape with a large fitted effect; inconclusive = falling curve, mostly with a smaller effect; inactive = flat or rising curve; cell line not stated here;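 also: intracellular cAMP measured with PDE inhibitor Ro 20-1724 present during compound exposure; potency is read from the fitted curve at half-maximal effect; % is scaled to controls: 0 for no effect and ±100 for the full control effect; nearly all actives have a fitted effect of over 65% in size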
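HTRF cAMP measurement after 30 min RT detection following 30 min, 37C compound treatment alongside […] (added as 300 uM solution) in G418-selected cells seeded at 2000/well and grown 16–24 h.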
TRPML1 blocker – human mucolipin-1 channel inhibition; Q9GZU1; TRPML1-inducible cells, Ca2+ dye fluorescence, FDSS; active compounds read low; inhibition of EC80 agonist-evoked calcium signal; activity change, negative = inhibition, % (concentration not given with the values); 0.02% of 390,000 active; AID 624415; in the data active means activity change below about -50%; inconclusive means about -30% to -50%; inactive means above about -30%;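 also: stimulus is agonist 54-4 at its EC80 concentration; % is scaled to controls: 0 for no effect and ±100 for the full control effect; the text of the record puts the active cut at -80%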
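Tet-induced TRPML1-DL cells loaded with Ca8 no-wash calcium dye were read kinetically on FDSS. Compound addition was followed by EC80 agonist 54-4 (4 uM final); inhibition was read over 110 s.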
Sfp inh – Sfp phosphopantetheinyl transferase inhibition. 3.5% of 310,000 active. Biochemical Sfp PPTase activity, qHTS. AID 1490. Potency, µM, for inactives: max response, negative = inhibition, hits mostly inhibitors; active = well fitted inhibition curve with a large enough effect; inconclusive = small, poorly fitted or top-dose-only effect, or another doubt; inactive = no such curve, though single readings can be large or run the other way;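 also: the enzyme is Sfp with the accession as filed and its product quenches rhodamine fluorescence; potency is read from the fitted curve at half-maximal effect; 0% = enzyme reaction without inhibitor and -100% = no enzyme wells; top concentration of the series not given in the record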
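Fluorescence-quenching assay with 15 nM Sfp, 5 uM rhodamine-CoA and 12.5 uM BHQ-2-labelled ybbR peptide in pH 7.6 Hepes/MgCl2 buffer. Enzyme was pre-incubated with compound for 15 min at room temperature. Rate was taken from the 30-min fluorescence change (525/598 nm).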
ClpP mod – qHTS Assay for Activators of ClpP; ATP-dependent Clp protease proteolytic subunit (Bacillus subtilis (strain 168)), P80244; Potency, µM (titrated, usually from 57.5 µM), inactives show top-dose activity change, negative = active; purified B. subtilis ClpP, FRET peptide cleavage, 20 min; 1.9% of 340,000 active; active = well fitted falling curve with a large enough effect; inconclusive = small, poorly fitted or top-dose-only effect; inactive = no such curve, though single readings can be large or run the other way; also: potency is read from the fitted curve at half-maximal effect; the source files actives as falling curves though it sought activators and does not explain the sign; nearly all actives have a fitted effect of over 65% in size; many hits overshoot -100%
Target sequence (P80244 whole entry, looked up): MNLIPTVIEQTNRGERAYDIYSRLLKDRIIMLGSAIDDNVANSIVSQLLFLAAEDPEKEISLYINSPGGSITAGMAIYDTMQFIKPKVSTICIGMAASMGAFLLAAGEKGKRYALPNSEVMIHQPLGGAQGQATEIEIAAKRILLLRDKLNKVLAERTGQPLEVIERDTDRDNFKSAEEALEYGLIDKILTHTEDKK
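Purified B. subtilis ClpP, 10 microg/mL final in Tris/HCl pH8 with KCl, BSA, glycerol and Tween-20, cleaved an Abz/nitrotyrosine-quenched decapeptide. Fluorescence (ex 320, em 430) was read at 0 and 20 min at room temperature. Delta was normalized to 5.8 microM ADEP and DMSO/no-enzyme controls.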
Numbers without * were called inactive; ? = inconclusive; / = not tested or not shown; & = joins results of further samples; [ ] = another dose, or the depositor's remark.

SMILES	Menin-MLL FL inh	gsp ag	TRPV1 potentiator	gsp antag	TRPML1 blocker	Sfp inh	ClpP mod
COc1ccc(C(C(=O)NC2CCCC2)N(C(=O)c2ccoc2C)c2ccc(C)cc2)cc1 (configuration not stated)	6.1	2%	-6	-18%	41	12%	-1.3%
S=c1[nH]cc(-c2ccccc2)n1-c1ccccc1	-5.3	-13%	20	?	-3	45µM*	1.2%
Cc1cccc(N2CCN(C(=S)c3ccc(-c4ccccc4[N+](=O)[O-])o3)CC2)c1	3.3	-27%[15.4 µM]	-3	-6%	8	?	2.5%
CC1CCN(S(=O)(=O)c2ccc(NC(=O)CCNC(=O)c3ccc(Cl)cc3)cc2)CC1	/	-1%[15.4 µM]	21	2%	-10	/	/
COc1ccccc1NC(=O)CN1CCC(n2nnc3cc(F)ccc32)CC1	-1.3	?	4	-17%	-1	4%	0.1%
CCS(=O)(=O)N1Cc2ccccc2CC1C(=O)N(C)CC(=O)Nc1ccc(OC)cc1 (configuration not stated)	/	-3%	14	-1%	11	/	0.4%
Cc1csc(-c2cnn(-c3ccccc3)c2NC(=O)c2cccc(F)c2)n1	2.1	-32%[inhibitor]	6	0%	-9	5%	-4.3%
O=C(O)c1ccc(COCC(F)(F)C(F)F)o1	-0.2	-47%[inhibitor]	-3	0%	-1	23%	-2.2%
CC12CC(O)C3C(CCC4=CC(=O)CCC43C)C1CCC2=CCO (configuration not stated)	/	-67%[inhibitor]	/	-5%	-21	/	/
CCCCN(C(=O)c1ccc([N+](=O)[O-])s1)c1c(N)n(CCCC)c(=O)[nH]c1=O	/	-12%[15.4 µM]	-2	-13%	6	/	-1.8%
Cc1ccc(SCC(c2ccccc2)N2CCN(CCc3ccccc3)CCC2=O)cc1 (configuration not stated)	8.5	/	/	/	5	-5%	/
C1CCC(CNc2c3c(nc4nnnn24)CCCC3)CC1	-1.5	?	20	4%	7	12%	-1.8%
CN(Cc1ccccc1)C(=O)COC(=O)c1ccc(Cl)c(N)c1	6.2	-7%	-10	12%	25	15%	?
Cc1ccc(S(=O)(=O)N2CC(=O)NC(=O)C2)cc1	-4.7	-8%[15.4 µM]	-1	19%	7	6%	/
CCCN(C(=O)C1=COCCO1)c1c(N)n(Cc2ccccc2)c(=O)[nH]c1=O	/	13%[15.4 µM]	?	-5%	20	/	-1.2%
CNC(=O)C1(CC(C)C)C=CCN1C(C)=O (configuration not stated)	-0.1&-0.1	4%	13	8%	1	2%&20%	0.0%
O=C(N/N=C/c1cccnc1)c1cccc(S(=O)(=O)Nc2cccc(Cl)c2)c1	2.9	-3%[15.4 µM]	-1	-11%	25	11%	/
CC(C)(C)c1ccc(OCC(=O)NNC(=O)c2cccnc2)cc1	0.6	1%	-18	3%	-11	8%	/
COc1cccc(-n2c(Cn3nc(C(F)(F)F)cc3C)n[nH]c2=S)c1	7.0	6%	-5	12%	-8	-4%	0.7%
CC(C)C(C)NC(=O)COC(=O)/C=C/c1ccc(S(=O)(=O)N2CCc3ccccc32)cc1 (configuration not stated)	0.4	-1%[15.4 µM]	4	-6%	-2	6%	/
COc1ccc(NS(=O)(=O)c2ccc(SC)cc2)cc1	0.9	-1%	1	?	26	-77%	-2.6%
N#CC(C#N)c1ccnc2ccccc12	/	7%	/	/	3	/	-2.0%
CNC[C@@H]1Oc2ccc(NS(=O)(=O)c3ccc(Cl)cc3)cc2C(=O)N([C@H](C)CO)C[C@@H]1C	/	/	/	0%	-12	/	0.5%
COC(=O)c1ccc2c(c1)SC1=C(CCCC1=O)N2	?	-9%	/	-31%	2	-4%	4.5%
O=C(NCC(=O)N(c1ccccc1)C(C(=O)NC1CCCCC1)c1ccncc1)c1ccco1 (configuration not stated)	1.2	-30%[inhibitor]	15	9%	1	-1%	0.9%
SMILES	Menin-MLL FL inh	gsp ag	TRPV1 potentiator	gsp antag	TRPML1 blocker	Sfp inh	ClpP mod
CCOC(=O)[C@H]1[C@H]2COc3ccc(Br)cc3[C@@H]2N2C(=O)c3ccc(C)cc3NC(=O)[C@@]12C	/	/	13	-10%	31	/	-2.7%
CCc1ccc(OCC(=O)N2CC(C(=O)OC)Oc3ccccc32)cc1 (configuration not stated)	-3.2	-56%[inhibitor]	-6	-17%	-13	11%	-1.5%
COc1ccc(CCn2c(=N)c(C(=O)NCCN3CCOCC3)cc3c(=O)n4cccc(C)c4nc32)cc1OC	/	?	12	-7%	-23	2%	-6.1%
O=C(COc1ccc(-n2cnnn2)cc1)Nc1cccc(Cl)c1Cl	/	15%[15.4 µM]	-4	10%	-5	8%	/
O=C(Nc1ccncc1)c1cc(S(=O)(=O)N2CCCC2)ccc1Cl	/	-11%	/	7%	-1	/	-2.9%
O=C(NCCN1CCN(c2ccccc2)CC1)c1cccc(Br)c1	-1.0	-7%	-10	0%	-2	5%	-0.3%
CCOCC(=O)Nc1nc2ccc(OC)cc2s1	2.5	-10%	-46	3%	-10	-1%	2.2%
Cc1nc2ccccc2c(=O)n1NC(=O)/C=C/c1ccc(Br)cc1	-1.5	-5%[15.4 µM]	-2	-7%	10	-1%	/
Cc1ccc(NC2SC(=O)N(CC(=O)O)C2=O)cc1 (configuration not stated)	-1.4	-3%	-6	0%	7	-5%	0.1%
O=C(NCCN1CCCC1)c1ccc(Cn2c(=S)[nH]c3cc4c(cc3c2=O)OCO4)cc1	0.7	26%	2	-1%	-1	-1%	-3.7%
CCN(C(=O)COC(=O)/C=C/c1ccc(O)c(OC)c1)C1CCS(=O)(=O)C1 (configuration not stated)	2.7	0%	3	0%	-17	-11%	-18%
O=C(CCCOc1ccccc1)Nc1ccc2c(c1)OCCO2	5.8	-17%	-6	-1%	6	0%	-2.1%
COc1ccc(-c2cc(-c3ccccc3)nc(=O)[nH]2)cc1	-0.1	20%	-5	0%	/	?	3.7%
CC1CCN(C(=O)c2[nH]cnc2C(=O)Nc2nccs2)CC1	/	/	-5	1%	28	/	-0.7%
CCN(CCCNC(=O)CCn1c(=O)[nH]c2ccccc2c1=O)c1cccc(C)c1	0.6	-17%	-20	0%	3	15%	-2.2%
COc1ccc(-n2nc3cc(C)c(NC(=O)CC(C)C)cc3n2)cc1	-0.4	/	-10	/	/	2%	/
COc1ccc2c(c1)c1nnc(SCC(=O)N3CCCCC3C)nc1n2C (configuration not stated)	0.0	-1%	0	10%	2	-10%	1.2%
Cn1cnnc1SCc1ccc(C(=O)n2ncc(C#N)c2N)cc1	6.5	-23%	-1	-1%	10	16%	0.2%
COc1ccc(OC)c(S(=O)(=O)NC(C)(C)C)c1	1.7	-17%	-2	14%	-1	10%	0.8%
CC1CCC(NC(=O)C2CCN(S(=O)(=O)c3ccc4nc5c(c(C(=O)O)c4c3)CC(C)CC5)CC2)CC1 (configuration not stated)	5.2	9%	5	-8%	-4	15%	3.1%
O=C(c1ccc(N2CCCC2=O)cc1)N1CCN(c2ccccc2Cl)CC1	/	-5%	19	7%	-6	/	-0.7%
N#CCC(=O)Nc1ccc(C(=O)OCC(=O)Nc2cccc(C(F)(F)F)c2)cc1	5.0	-2%[15.4 µM]	3	-22%	3	18%	/
N=c1n(CCN2CCCCC2)c2ccccc2n1CC(O)c1ccco1 (configuration not stated)	-1.1	12%[15.4 µM]	1	9%	22	-7%	-0.7%
CCSC1=N/C(=C\c2ccc(C)s2)C(=O)S1	3.5	5%	-8	8%	-5	?	2.5%
Cc1ccc(S(=O)(=O)N2CCN(c3ccc([N+](=O)[O-])c(Sc4nncn4C)c3)CC2)cc1	0.4	-32%[inhibitor]	3	-9%	21	25%	1.0%

A different layout for some results above.
SMILES,Menin-MLL FL inh,gsp ag,TRPV1 potentiator,gsp antag,TRPML1 blocker,Sfp inh,ClpP mod
CCN(C(=O)COC(=O)/C=C/c1ccc(O)c(OC)c1)C1CCS(=O)(=O)C1 (configuration not stated),2.7,0%,3,0%,-17,-11%,-18%
O=C(CCCOc1ccccc1)Nc1ccc2c(c1)OCCO2,5.8,-17%,-6,-1%,6,0%,-2.1%
COc1ccc(-c2cc(-c3ccccc3)nc(=O)[nH]2)cc1,-0.1,20%,-5,0%,/,?,3.7%

Next section
SMILES	Menin-MLL FL inh	gsp ag	TRPV1 potentiator	gsp antag	TRPML1 blocker	Sfp inh	ClpP mod
O=C(Nc1ccccc1Cc1ccccc1)c1ccncc1	/	9%	-7	3%	13	8%	-0.9%
CC1Cc2ccccc2N1C(=O)CSc1nnc(C2CC2)n1C (configuration not stated)	-5.0	21%[15.4 µM]	9	-2%	0	5%	/
COCCCNC(=O)c1c[nH]c2ccc(S(=O)(=O)N3CCC4(CC3)OCCO4)cc2c1=O	-2.9	26%[15.4 µM]	3	-2%	7	6%	/
CSc1ncnc2c1ccn2CC(=O)Nc1ccc(C)c(C)c1	/	/	-10	-1%	25	/	?
C=CCN1C(=O)c2ccc(C(=O)NCC(=O)Nc3c(C)cc(C)cc3C)cc2C1=O	/	25%	-6	1%	8	/	2.1%
O=S1(=O)CC(O)C(NCc2cccnc2)C1 (configuration not stated)	3.9	?	-10	-2%	50	9%	-2.6%
O=C(NCC1CCCCC1)C1CCN(C(=O)NC2CCCCC2)CC1	4.7	-2%	-4	7%	0	15%	0.8%
O=C(NNC(=O)C1CCN(Cc2ccc(F)cc2Cl)CC1)Nc1ccc([N+](=O)[O-])cc1	0.1	0%	1	1%	-13	10%	1.8%
CCn1ncc(C2C(C(=O)Nc3ccc(C)cn3)=C(C)NC3=C2C(=O)CCC3)c1C (configuration not stated)	4.5	-10%[15.4 µM]	-5	5%	0	18%	1.9%
Cc1ccc(S(=O)(=O)N(CCC#N)CCN2CCCC2)cc1	0.7	30%	5	20%	-6	10%	0.2%
COc1ccc(C(=O)n2nc(C)cc2C)cc1Br	-2.5	-36%	6	3%	15	-8%	0.1%
O=C(O)c1cc(C(=O)C2CCCCC2)c[nH]1	0.2	-10%	-3	6%	-15	-12%	/
COc1cc(C2N(C)C(=O)c3ccccc3N2C)ccc1O (configuration not stated)	1.5	-56%[inhibitor]	6	7%	33	11%	/
O=C(COC(=O)CCc1ccccc1)Nc1cc([N+](=O)[O-])ccc1F	-1.0	27%	-6	13%	3	6%	/
